High-throughput results (PubChem)
NPR1 antag = human Npr1 receptor antagonism; Potency, µM (titrated, usually from 46.3 µM), inactives show top-dose activity change, negative = inhibition, most hits filed as inhibitors; 1.6% of 76,000 active; HEK293 hNpr1 GloSensor cGMP, ANP-stimulated luminescence; active = well fitted inhibition curve with a large enough effect; inconclusive = small, poorly fitted or top-dose-only effect; inactive = no such curve, though single readings can be large or run the other way;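 also: nearly all actives have a fitted effect of over 60% in size; nearly all hits also lower the signal before the agonist is added; a reference antagonist and vehicle were the controls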
Target sequence (P16066 whole entry, looked up): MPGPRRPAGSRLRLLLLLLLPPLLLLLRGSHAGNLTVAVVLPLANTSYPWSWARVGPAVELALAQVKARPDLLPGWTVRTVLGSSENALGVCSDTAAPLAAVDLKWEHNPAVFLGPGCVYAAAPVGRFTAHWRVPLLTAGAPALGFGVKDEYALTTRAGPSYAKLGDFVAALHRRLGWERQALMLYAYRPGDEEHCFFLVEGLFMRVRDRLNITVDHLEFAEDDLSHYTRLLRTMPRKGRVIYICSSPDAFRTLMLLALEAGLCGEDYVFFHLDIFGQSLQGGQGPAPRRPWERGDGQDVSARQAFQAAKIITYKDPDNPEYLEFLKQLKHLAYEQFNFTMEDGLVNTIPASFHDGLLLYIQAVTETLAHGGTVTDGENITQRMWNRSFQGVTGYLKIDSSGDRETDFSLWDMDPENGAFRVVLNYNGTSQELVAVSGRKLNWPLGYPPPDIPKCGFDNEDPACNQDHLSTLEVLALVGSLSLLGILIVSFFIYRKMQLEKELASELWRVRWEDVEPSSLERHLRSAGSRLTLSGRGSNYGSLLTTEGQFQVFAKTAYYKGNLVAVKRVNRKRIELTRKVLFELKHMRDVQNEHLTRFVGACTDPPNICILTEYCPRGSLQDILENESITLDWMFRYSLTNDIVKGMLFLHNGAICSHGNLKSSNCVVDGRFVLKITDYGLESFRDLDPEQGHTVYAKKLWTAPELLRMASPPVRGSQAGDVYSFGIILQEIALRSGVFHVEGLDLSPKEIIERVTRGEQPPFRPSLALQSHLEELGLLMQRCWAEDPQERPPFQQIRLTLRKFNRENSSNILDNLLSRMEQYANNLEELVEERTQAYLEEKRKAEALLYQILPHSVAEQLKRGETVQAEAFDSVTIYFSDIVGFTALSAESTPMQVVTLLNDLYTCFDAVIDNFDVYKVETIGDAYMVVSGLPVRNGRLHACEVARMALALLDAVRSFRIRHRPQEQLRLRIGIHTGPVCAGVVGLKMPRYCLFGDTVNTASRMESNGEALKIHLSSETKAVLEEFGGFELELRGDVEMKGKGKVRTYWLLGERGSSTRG
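HEK293 cells stably expressing human Npr1 and cGMP GloSensor pGS-40F, loaded 2 h with 2% GloSensor reagent, given compound 30 min at room temperature. Luminescence read before and 20 min after 0.1 nM hNppA.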
Starred values were filed as active, the others as inactive; ? = inconclusive; [ ] = remark or other dose. % is scaled to controls: 0 for no effect and ±100 for the full control effect; potency is read from the fitted curve at half-maximal effect.

nr | NPR1 antag | molecule
1 | 4.8% | COCCC(=O)NCCC1CCN(C(=O)Nc2cccc(F)c2)CC1
2 | 1.8% | CCc1ccc(C(=O)N2CCN(C(=O)c3nnn4c3COC(c3ccc(F)cc3)C4)CC2)cc1 (stereo unspecified)
3 | -1.1%[70.6 µM] | O=C1N(c2ccccc2)C[C@H]2CN(CC3CC3)CCN12
4 | 4.4% | O=C(O)CCn1ncc2cc(OCC3CCN(C(=O)Oc4ccccc4Cl)CC3)ccc21
5 | -8.0% | O=C(c1ccco1)N1CCC2(CC1)CC(N(C(=O)c1ccccc1)C1CC1)CCO2 (stereo unspecified)
6 | 0.0% | O=C(C1CCCC1)N1CCC2(CC1)NC(=O)N(c1ccccc1)N2
7 | 6.0% | Cn1cc([C@@H](NC(=O)c2cc(=O)n(-c3ccccc3)[nH]2)C2CC(O)C2)cn1 (stereo partly specified)
8 | -16.8%[70.6 µM] | O=C(c1ccccc1)N1CCC2(CC1)COc1ccccc1NC2=O
9 | 9.1% | Cc1ccc(CCNC(=O)c2nnn3c2COC(c2ccc(Cl)cc2)C3)cc1 (stereo unspecified)
10 | 0.9% | COc1cccc(CNC(=O)[C@@H]2C[C@@H](O)CN2C2CCN(C(=O)c3ccsc3)CC2)c1
11 | -0.1% | Cc1noc(-c2cccn3c(CNC(=O)Cc4cccc(F)c4)nnc23)n1
12 | -0.4% | Cc1cccc(NC(=O)N2CCCC(Cn3cnc4cccnc43)C2)c1 (stereo unspecified)
13 | -1.2% | Cc1nn2c(c1-c1ccnn1C(C)C)N(C(=O)c1ccc(Oc3ccccc3)cc1)CCC2
14 | 0.0% | COc1ccc(-n2nc(C3CCN(C(=O)Cc4ccccn4)CC3)[nH]c2=O)cc1
15 | -11.9% | CCN1c2cc(C(=O)NCc3ccccc3Cl)ccc2C(=O)N2CCCCCC21 (stereo unspecified)

Part of the list above, with each value named:
[8] O=C(c1ccccc1)N1CCC2(CC1)COc1ccccc1NC2=O
  NPR1 antag: -16.8%[70.6 µM]

[14] COc1ccc(-n2nc(C3CCN(C(=O)Cc4ccccn4)CC3)[nH]c2=O)cc1
  NPR1 antag: 0.0%

[10] COc1cccc(CNC(=O)[C@@H]2C[C@@H](O)CN2C2CCN(C(=O)c3ccsc3)CC2)c1
  NPR1 antag: 0.9%

(next part)
nr | NPR1 antag | molecule
16 | 0.2% | O=C(CCN1CCCCO1)N1CCOC(CC2CCCCC2)C1 (stereo unspecified)
17 | 2.8% | COCc1nc(C2CCN(C(=O)NCC(C)C)C2)no1 (stereo unspecified)
18 | 2.7% | COc1ccc(NC(C)(C)C(=O)N2CCC3(CCN(C)CC3)C2)cc1
19 | -14.5% | Cc1ccc(C(=O)N2CCC3(CC2)N(C)C(=O)CS3(=O)=O)cc1F
20 | 2.4% | CCC(=O)N1CCC(O)(c2ccccc2)[C@H](N(C)C)C1 (stereo partly specified)
21 | 7.4%[70.6 µM] | COCCNc1ncc(-c2ccnc(C)c2)c2c1OCC2
22 | 6.3% | Cc1nc(CCCNC(=O)[C@H]2CCC[C@@H](O)C2)sc1C
23 | 0.0% | O=C(N[C@H]1CCC[C@H]1O)C1(Oc2ccc(Cl)cc2)CCNCC1
24 | -28.3% | O=C(NC1CCCC1)N1c2ccccc2CC1c1noc(C2CCOCC2)n1 (stereo unspecified)
25 | -5.4%[70.6 µM] | CC1(C(=O)NCC2CC2)COCc2cnc(Nc3ccccc3)nc21 (stereo unspecified)
26 | -5.8% | Cc1ccc(-c2nocc2CCC(=O)O)cc1
27 | -4.6% | OCc1ccc(CN2CCCC(CCc3c(F)cccc3F)C2)o1 (stereo unspecified)
28 | 5.2% | CC(C)CCC(=O)N1CCC(OC2CCN(Cc3ccccc3)CC2)CC1
29 | 0.2% | COc1ccc(-c2nc(C)nc3c2CCN(CC2CCCCC2)CC3)cc1
30 | -1.4%[70.6 µM] | Cc1nn2c(c1-c1ccccc1-c1ccccc1)N(C(=O)c1ccnn1C)CCC2
31 | -0.5% | CS(=O)(=O)N1CCCN(C(=O)Cc2ccc(OC(F)(F)F)cc2)c2ccccc21
32 | -20.7% | Cc1cccc(NC(=O)N2CCC(Oc3ccc(-c4noc(C)n4)cc3)C2)c1 (stereo unspecified)
33 | -4.1% | Cc1cccc(NC(=O)N2CCC(CCNC(=O)c3cnccn3)CC2)c1
34 | 4.5% | Cc1noc(CN(C)C(=O)c2ccc(S(=O)(=O)NCCO)cc2)n1
35 | -5.3% | c1cncc(CN2CCC(C3CCN(Cc4ccc[nH]4)C3)CC2)c1 (stereo unspecified)
36 | -27.8% | COc1ccc(CN2C[C@H]3CN(Cc4cccc(OC(F)(F)F)c4)CCN3C2=O)cc1
37 | -11.7% | COc1cc(CNC(=O)c2c(C)noc2-c2ccc(OC(F)(F)F)cc2)cc(OC)c1
38 | -13.0% | O=C1NC(C(=O)NCc2ccc3c(c2)OCO3)Cn2cccc21 (stereo unspecified)
39 | 4.0% | O=C(NC1CCCc2nc(N3CCC(CO)CC3)ncc21)c1ccccn1 (stereo unspecified)
40 | -0.3% | CCO[C@H]1CN(C(=O)c2nc3ccccc3[nH]c2=O)C[C@@H]1O
41 | -5.2% | O=C(NCCc1ccncc1)c1coc(CN2CCN(c3ccccc3F)CC2)n1
42 | 12.6µM* | O=C(NCc1ccccc1F)c1ccc2c(c1)CN(Cc1ccncc1)CCO2
43 | -18.1%[70.6 µM] | O=C(Nc1ccncn1)[C@@H]1C[C@@H](c2ccc(F)cc2)N(Cc2ccccc2)C1
44 | -0.6% | COc1ccc2c(c1)CCN=C2C[C@H]1CN(C(=O)c2ccc(C#N)cc2)CC[C@H]1CC(=O)O
45 | 4.8% | CCc1nc2cc(N3CCC(C(=O)NC(C)c4cccnc4)CC3)cnc2nc1CC (stereo unspecified)
46 | -17.2% | Cc1cccc(OCC(=O)Nc2cccc(-c3nnc4n3CCCC4)c2)c1
47 | -4.4%[70.6 µM] | COCCOc1ncccc1-c1noc([C@@H]2CCCN2C(C)C)n1
48 | ? | COC(=O)[C@H](Cc1ccccc1)NC1CCN(c2cccc(NC(=O)CC3CCCC3)c2)CC1
49 | 0.1%[70.6 µM] | N#Cc1cccc(CN2C3CCC2CN(C(=O)c2ccncc2)C3)c1
50 | -14.3% | CCn1cc(-c2ccc(C)cc2)cc1C(=O)NCC1CCCO1 (stereo unspecified)
51 | -7.8% | Brc1ccc(CN2CCC(c3nc4ncccc4[nH]3)CC2)cc1
52 | -0.6% | Cc1noc(-c2ccn3c(CNC(=O)c4ccccn4)nnc3c2)n1
53 | -10.2% | O=C(c1ccncc1)N1CCC2(CC1)CN(c1ncccn1)CC2CO (stereo unspecified)
54 | -4.7% | COC(=O)c1cccc(NC(=O)C2CCc3sc(C(=O)N(C)C)cc3C2)c1 (stereo unspecified)
55 | 0.3% | CCc1c(C(=O)N2CCCC3(CCNC3)C2)[nH]c2ccccc12 (stereo unspecified)
56 | -13.9% | O=C(NCc1cccc(F)c1)N1CCc2nc3cc(-c4ccccc4)[nH]n3c(=O)c2C1
57 | -1.5% | O=C(COc1ccc(F)cc1)N1CCC2(CC1)N=C(c1ccccc1)NC2=O
58 | -0.5%[70.6 µM] | CC(C(=O)NC1CC1)[C@@H]1CC[C@@]2(C)CC[C@H](NC(=O)CC(C)(C)C)[C@@H](C)[C@@H]2[C@H]1O (stereo partly specified)
59 | -0.5% | CCn1ncc(N2CCC(NC(=O)C(C)c3ccccc3)CC2)cc1=O (stereo unspecified)
60 | ? | Cc1cc(=O)n(CC(=O)Nc2ccc(C)c(Cl)c2)c(N2CCC(C)CC2)n1

7 entries from above, bar-delimited:
cpd | Compound | NPR1 antag
49 | N#Cc1cccc(CN2C3CCC2CN(C(=O)c2ccncc2)C3)c1 | 0.1%[70.6 µM]
58 | CC(C(=O)NC1CC1)[C@@H]1CC[C@@]2(C)CC[C@H](NC(=O)CC(C)(C)C)[C@@H](C)[C@@H]2[C@H]1O (stereo partly specified) | -0.5%[70.6 µM]
51 | Brc1ccc(CN2CCC(c3nc4ncccc4[nH]3)CC2)cc1 | -7.8%
52 | Cc1noc(-c2ccn3c(CNC(=O)c4ccccn4)nnc3c2)n1 | -0.6%
46 | Cc1cccc(OCC(=O)Nc2cccc(-c3nnc4n3CCCC4)c2)c1 | -17.2%
60 | Cc1cc(=O)n(CC(=O)Nc2ccc(C)c(Cl)c2)c(N2CCC(C)CC2)n1 | ?
53 | O=C(c1ccncc1)N1CCC2(CC1)CN(c1ncccn1)CC2CO (stereo unspecified) | -10.2%

(list continues)
nr | NPR1 antag | molecule
61 | -3.1%[70.6 µM] | CC(=O)N1CCC(N2CC[C@H](c3nnc(-c4ccco4)o3)C2)CC1
62 | -22.0%[70.6 µM] | Cc1ccc(CN[C@@H]2CO[C@H](CNC(=O)c3cccs3)[C@H]2O)cc1
63 | 2.2% | CN(CC1CCOC1)C(=O)Nc1ccccc1C(F)(F)F (stereo unspecified)
64 | 1.9% | O=C(Nc1cccc(-c2ccc(F)cc2)c1)C1CCCN1C(=O)C1CCOCC1 (stereo unspecified)
65 | 3.8%[70.6 µM] | C#CCNC(=O)C[C@@H]1CCN(C(=O)Nc2cccc(C(=O)OCC)c2)C[C@@H]1CC
66 | -7.6% | COc1cccc(C2Cn3nnc(-c4nc(-c5ccc(OC)c(F)c5)no4)c3CO2)c1 (stereo unspecified)
67 | 4.1% | Cn1ncc(N2CCC(CNC(=O)CN3CCOCC3)C2)cc1=O (stereo unspecified)
68 | ? | Cc1ccc(-n2nc(C)c([C@@H]3C=C[C@@H](NCc4ccc(N(C)C)cc4)C3)c2C)cc1Cl
69 | 7.08µM* | COc1ccc(CC(=O)N2CCC(Cc3nc(-c4ccccc4)no3)CC2)cc1
70 | 1.4%[70.6 µM] | Cc1nn2c(c1-c1ccccc1OCc1ccccc1)N(C(=O)C1CCC1)CCC2
71 | 9.3% | O=C(c1ccncc1)N1CC(Oc2ccccc2-c2nc(C3CC3)no2)C1
72 | -3.1% | CC(C)C(=O)N1C[C@@H](Oc2ccccc2)C[C@@H]1C(=O)N1CCOCC1
73 | 1.0%[70.6 µM] | CC1=C[C@@H](CNC(=O)CCC(=O)O)[C@H](C(C)C)C[C@H]1Cc1nc2ccc(Cl)cc2[nH]1
74 | 0.0% | O=c1[nH]c(C2CCCN(CC3CCCCC3)C2)nn1-c1ccc(Cl)cc1 (stereo unspecified)
75 | 2.7% | CC(=O)Nc1ccc(C2(C(=O)N3CCCCC3)CCC2)cc1
76 | 5.7% | CN(C)Cc1nnc(C2CC(NC(=O)CC3Cc4ccccc4C3)C2)n1C (stereo unspecified)
77 | 2.1% | CCc1noc(-c2cn(C3CCN(C(=O)Cc4cccc(C)c4)CC3)nn2)n1
78 | 5.8% | COc1ccc(NC(=O)N2CCn3nnc(CCC(=O)NC4CC4)c3C2)cc1
79 | -13.4%[70.6 µM] | O=C(NC[C@H]1Cn2c(-c3ccc(F)cc3)cnc2CO1)c1cnccn1
80 | -13.3%[70.6 µM] | COc1cccc(Nc2cccc(CN3CCC(C)(NC(C)=O)C3)c2)c1 (stereo unspecified)
81 | 3.7% | CO[C@H]1C(=O)N(C2CCN(C(=O)C3CCCC3)CC2)[C@H]1c1ccncc1
82 | 5.4% | Cc1cc(C(=O)N2CCCC(n3c(C)cnc3C3CCC3)C2)nn1C (stereo unspecified)
83 | 4.8% | COC[C@@H]1CN(C(=O)Cc2c(C)noc2C)C[C@H]1c1ccccn1
84 | 6.2%[70.6 µM] | COCCn1cnc2ccc(N3CCCC3)nc2c1=O
85 | -6.2% | O=C(c1ccccc1)N1CCC(Oc2cccnc2)C1 (stereo unspecified)
86 | -18.6% | COc1ccc(NC(=O)O[C@@H]2CO[C@H]3[C@@H]2OC[C@@H]3n2nnnc2SCc2ccco2)cc1
87 | -2.7% | O=C(NCc1ccccc1)Nc1cccc(-c2nnc3n2CCCC3)c1
88 | -0.3%[70.6 µM] | COc1cc(F)ccc1-c1nc(-c2c(C)noc2C)cc2[nH]c(C)cc12
89 | 6.2% | Cc1cc2nc3n(c(=O)c2n1CC(=O)Nc1ccc(F)c(F)c1)CCCC3
90 | 15.5% | CC(C)CS(=O)(=O)c1ncc(CN(C)Cc2cnn(C)c2)n1Cc1ccccc1
91 | 4.9% | COC[C@@H]1CN(c2cnccn2)C[C@H]1C(=O)Nc1cccnc1
92 | ? | CN1CCN(c2ccc3ncc(Nc4ccccc4-c4ccccc4)n3n2)CC1

This is a subset; the hit share may differ from the screen's.
